Screening results: PubChem, National Center for Advancing Translational Sciences (NCATS)
SARS PLpro yeast – SARS-CoV PLP inhibition in yeast; S. cerevisiae expressing SARS-CoV PLpro, growth rescue; control for the full effect not named in the record; Potency, µM (titrated, usually from 32.9 µM), inactives show top-dose activity, positive = growth rescue; 330,000 tested, 0.19% active; AID 485353; active means well fitted rising curve with a large enough effect; inconclusive means small, poorly fitted or top-dose-only effect; inactive means no such curve, though single readings can be large or run the other way; note: 0% is about no effect; nearly all actives have a fitted effect of over 55% in size; growth read by luminescence after 48 h
Cruzain Triton – inhibitors of Trypanosoma cruzi cruzain with detergent | P25779 | purified cruzain, Z-FR-AMC fluorescence, 0.01% Triton | Potency, µM, for the others: max response, negative = inhibition, usual class: inhibitors | 200,000 tested, 0.43% active;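 note: plate controls were neutral wells for no effect and buffer without enzyme for full effect; nearly all actives have a fitted effect of over 40% in size; top concentration of the series not given in the record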
Target sequence (P25779 123-467 limits assumed): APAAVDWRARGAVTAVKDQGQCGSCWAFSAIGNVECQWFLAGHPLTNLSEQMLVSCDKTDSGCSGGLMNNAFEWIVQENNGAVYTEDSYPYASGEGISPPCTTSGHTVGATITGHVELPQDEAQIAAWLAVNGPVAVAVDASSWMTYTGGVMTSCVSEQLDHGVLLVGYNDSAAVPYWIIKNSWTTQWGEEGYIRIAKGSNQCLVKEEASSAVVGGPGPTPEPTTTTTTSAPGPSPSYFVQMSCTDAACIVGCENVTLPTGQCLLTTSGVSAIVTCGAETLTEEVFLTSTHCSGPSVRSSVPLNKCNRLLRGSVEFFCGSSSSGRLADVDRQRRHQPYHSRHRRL
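Cruzain (1.5 nM) preincubated 15 min at RT with compound in 100 mM sodium acetate pH 5.5, 5 mM DTT, 0.01% Triton X-100. Reaction started with 2 uM Z-FR-AMC; AMC fluorescence (ex 360/em 450 nm) change over 60 s gave rate.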
2A StopGo – FMDV 2A StopGo reporter, luciferase signal; AID 1159524; 410,000 tested, 1.2% active; human cells with a luciferase reporter of 2A StopGo recoding; control for the full effect not named in the record; Potency, µM (highest dose often 57.9 µM), inactives show at the top dose signal change, negative = less light; active = well fitted falling curve with a large enough effect; inconclusive = small, poorly fitted or top-dose-only effect; inactive = no such curve, though single readings can be large or run the other way; tested in HEK293T cells; note: % is set by controls: 0 for no effect and ±100 for the full control effect; nearly all actives have a fitted effect of over 45% in size; luciferase light after 4 h
MARV entry inh – inhibitors of Marburg virus binding or cell entry. Marburg virus pseudotyped entry inhibition, cell reporter; control for the full effect not named in the record; about a third of the inactives were read at about 46 µM. Potency, µM (series often up to 37.8 µM), for the others: at the top dose activity change, negative = inhibition, actives largely listed as inhibitors. 300,000 tested, 1.8% active. AID 540276; active = well fitted inhibition curve with a large enough effect; inconclusive = small, poorly fitted or top-dose-only effect, or effect the other way; inactive = flat fitted curve, though single readings scatter; tested in HEK293 cells; about a fifth of its hits are not listed in these tables; note: % is set by controls: 0 for no effect and ±100 for the full control effect; luciferase read-out
Cruzain noTriton – cruzain (T. cruzi) inhibition without detergent; P25779; purified cruzain, Z-FR-AMC fluorescence, no detergent; Potency, µM, without a hit: max response, negative = inhibition, most hits filed as inhibitors; 200,000 tested, 2.3% active; AID 1476;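 note: plate controls were enzyme without inhibitor for no effect and buffer without enzyme for full effect; nearly all actives have a fitted effect of over 40% in size; top concentration of the series not given in the record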
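Purified cruzain at 1.5 nM, pre-incubated 15 min with compound at room temperature in 100 mM sodium acetate pH 5.5, 5 mM DTT, 0.00005% Triton X-100. Reaction started with 2 uM Z-FR-AMC; AMC fluorescence increase over 60 s gives rate.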
NS1 function inh – influenza NS1 inhibition. Potency, µM (titrated, usually from 46.1 µM), inactives show at the top dose activity, positive = more growth. 270,000 tested, 0.4% active. S. cerevisiae slowed by influenza A NS1, growth recovery by OD600. AID 2326; active means well fitted rising curve with a large enough effect; inconclusive means small, poorly fitted or top-dose-only effect; inactive means no such curve, though single readings can be large or run the other way; note: nearly all actives have a fitted effect of over 50% in size
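Growth recovery, yeast-based: influenza A NS1 expressed in S. cerevisiae causes slow growth, and suppressors are detected by OD600. The parent strain without NS1 is used as positive control.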
RE007 growth inh – less growth of the S. pombe RE007 Vpr strain. S. pombe RE007 Vpr strain, BacTiter-Glo ATP luminescence, 24 h; control for the full effect not named in the record. Potency, µM (series often up to 92.2 µM), inactives show at the top dose activity change, negative = less growth. 360,000 tested, 0.21% active. AID 651644; active = well fitted falling curve with a large enough effect; inconclusive = small, poorly fitted or top-dose-only effect; inactive = no such curve, though single readings can be large or run the other way;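 note: % is set by controls: 0 for no effect and ±100 for the full control effect; nearly all actives have a fitted effect of over 50% in size; the assay follows cell death caused by Vpr and the record does not say whether a fall means rescue or toxicity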
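Fission yeast RE007 carrying one integrated HIV-1 vpr copy, seeded at OD 0.01 in PMG+AL medium with 23 nL pinned compound. Grown 24 h at 30 degrees; viability read by BacTiter-Glo luminescence after 5 min.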
LASV entry inh – inhibitors of Lassa virus binding or cell entry; Lassa virus pseudotype entry inhibition, cell reporter; control for the full effect not named in the record; Potency, µM (highest dose often 37.9 µM), without a hit: at the top dose activity change, negative = inhibition, hits mostly inhibitors; 300,000 tested, 1.2% active; AID 540256; active means well fitted inhibition curve with a large enough effect; inconclusive means small, poorly fitted or top-dose-only effect, or effect the other way; inactive means flat fitted curve, though single readings scatter; tested in HEK293 cells; note: % is set by controls: 0 for no effect and ±100 for the full control effect; nearly all actives have a fitted effect of over 50% in size; luciferase read-out
* marks the source's active call; other numbers are inactive results; ? = inconclusive; / = no result given; & = joins results of further samples; [ ] = remark or other dose. Unless noted, calls come from the whole dose curve; as a rule, active = well fitted curve in the direction sought with a large enough effect; inconclusive = small, poorly fitted or top-dose-only effect, or another doubt; inactive = no such curve, though single readings can be large; an effect the other way counts as inactive or inconclusive. Potency is the fitted concentration of half-maximal effect.

SMILES	SARS PLpro yeast	Cruzain Triton	2A StopGo	MARV entry inh	Cruzain noTriton	NS1 function inh	RE007 growth inh	LASV entry inh
CC(C)(C)OC(=O)N1CCC(c2c(C(=O)NCc3ccc(F)cc3)cnn2-c2ccc(F)cc2)CC1	/	-7.1%	-19%	/	16%	/	/	?
COc1ccc(-c2cc(-c3ccc(O)cc3)nc(N)c2C#N)cc1	-3%	/	-8%	/	/	-14%	-3%	/
CN(C)CCCNS(=O)(=O)c1ccc(Oc2ncc(C(F)(F)F)cc2Cl)cc1	5%	-1.1%	?	?	9%	-3%	-7%	-27%
OCCC1CN(CC2CCCCC2)CCN1C1CCCC1 (stereo not given)	0%	/	-16%	?	/	5%	9%	0%[46.1 µM]
O=C(CCc1nc(-c2ccccc2)no1)NCC1CCCO1 (stereo not given)	-1%	-5.0%	-15%	16%	-13%	-12%	-18%	3%
CC(C)CCc1noc(CN2CCN(c3ccc(Cl)cn3)CC2)n1	-1%	/	-7%	/	/	1%	7%	/
COc1ccc2nc(SCC(=O)NC3CCCCC3)[nH]c2c1	0%	/	-8%	?	/	-8%	-11%	?
O=C(C1=C(O)C(=O)N(c2ncccn2)C1c1ccc(F)cc1)c1ccco1 (stereo not given)	0%	/	0%	-6%	/	0%	24%	10%
CN1C(=O)C2(C(C#N)=C(N)Oc3n[nH]c(-c4ccc(Cl)cc4)c32)c2ccccc21 (stereo not given)	21%	0.6%	-28%	?	-7%	-2%	-5%	?
CN(C)/C=C/C(=O)c1ncc(C(F)(F)F)cc1Cl	2%	/	-14%	0%	/	/	2%	2%
CC(=O)Nc1cc(C(=O)N(C)Cc2ccccc2)ccc1S(=O)(=O)c1ccc(C)cc1	0%	/	14%	/	/	-8%	8%	/
O=C1C2C3C=CC(CC3)C2C(=O)N1c1ccc([N+](=O)[O-])cc1 (stereo not given)	-5%	/	-19%	0%	/	?	10%	?
CCOCCCNC(=O)C(c1ccc(C)cc1)N(Cc1ccc2c(c1)OCO2)C(=O)c1ccccn1 (stereo not given)	1%	/	1%	?	/	12%	-12%	?
O=C(c1cccs1)N1CCN(S(=O)(=O)c2ccccc2)CC1	0%	-0.9%	14%	18%	-1%	5%	19%	12%
Cc1ccc(N2C(=O)C3CC3C2=O)cc1 (stereo not given)	2%	/	-11%	-1%[46.1 µM]	/	/	15%	-20%
COc1ccc(-c2nc3n(n2)C(c2ccccc2Cl)C(C(N)=O)=C(C)N3)cc1 (stereo not given)	-6%	2.6%	-14%	/	2%	-5%	5%	/
COc1ccc(S(=O)(=O)NCC(=O)N(CC(=O)NCc2ccco2)Cc2ccccc2)cc1	1%	/	1%	-29%[46.1 µM]	/	5%	8%	-26%
NC(=O)CC[C@@H]1NC(=O)[C@H](CO)NC(=O)c2cc([N+](=O)[O-])cc(I)c2NCC[C@@H](C(N)=O)NC(=O)[C@H](Cc2ccc(O)cc2)NC1=O	-1%	-10%	/	8%	-7%	-6%	/	15%
C=CCc1cccc(CNc2cnc3ccccc3c2)c1O	-10%	/	-4%	/	/	4%	-4%	/
Clc1cccc(N2CCN(CCCN3CCN(c4ccccc4)CC3)CC2)c1	/	/	-23%	?	/	/	9%	?
Cc1cc(C)c(NC(=O)Cn2nnc(C(=O)NCc3ccc4c(c3)OCO4)c2N)c(C)c1	1%	/	-22%	/	/	-8%	-9%	/
Cc1ccc(-c2c(C)sc3nc(CN4CCN(CC(=O)NC5CC5)CC4)[nH]c(=O)c23)cc1	-4%	/	0%	-17%	/	/	7%	-10%
CC1(OCON)CCCc2ccccc21 (stereo not given)	4%	/	-3%	/	/	3%	-1%	/
Cc1ccc(CNC(=O)c2ccc3c(c2)nc2n3CCOC2)cc1	/	1.2%	-6%	/	1%	/	/	3%[46.1 µM]
CC(CC(=O)N(C)c1c(N)n(Cc2ccccc2)c(=O)[nH]c1=O)c1ccccc1 (stereo not given)	-1%	/	-11%	-21%	/	/	1%	3%
O=C(CCN1C(=O)C2C3C=CC(C3)C2C1=O)NCCc1ccccc1 (stereo not given)	-7%	0.6%	40%[activator]	?	-8%	-5%	-4%	9%
CC(CNC(=O)C1CCCCC1)NC(=O)C1CCCCC1 (stereo not given)	-1%	-1.0%	/	8%	0%	-2%	-3%	-6%
Cc1ccc(C(=O)CCC(=O)Nc2ccccc2C)c(C)c1	-4%	/	26%	15%[46.1 µM]	/	-2%	41%	10%[46.1 µM]
O=C(NCCCCl)C1CC(=O)N(CCc2ccc(F)cc2)C1 (stereo not given)	-1%	/	-7%	16%[46.1 µM]	/	3%	-6%	1%[46.1 µM]
O=C(NC1CCCCCC1)C(=S)NCc1ccccc1	-1%	/	62%[activator]	-9%&-9%	/	-8%	-16%	?
O=C(C1CC(c2ccc(F)cc2)=NO1)N1CCC2(CC1)OCCO2 (stereo not given)	-17%	0.2%	39%[activator]	?	-1%	6%	2%	?
CCOC(=O)c1[nH]c2c(c1-c1ccccc1)C(=O)CC(c1ccc(OC)c(OC)c1)C2 (stereo not given)	1%	-3.4%	?	-42%	?	-5%	-15%	-29%
CC1=NN(C(=O)CCc2ccccc2)C(c2ccccc2)C1 (stereo not given)	1%	/	13%	-12%[46.1 µM]	/	1%	9%	-8%[46.1 µM]
Cc1ccc(C)c(NC(=O)C(=O)NCc2ccccn2)c1	-7%	-0.7%	4%	9%	8%	16%	19%	2%
Cc1onc(-c2ccccc2)c1-c1ccnc(N)n1	0%	/	-16%	1%	/	-7%	23%	18%
Cc1ccc(S(=O)(=O)Nc2ccccc2C(=O)Nc2sccc2C(=O)NN(C)C)cc1	22%	-5.5%	54%[activator]	-22%	20%	13%	12%	0%
O=C(NC(=S)Nc1ccccc1N1CCN(C(=O)c2ccccc2)CC1)c1ccccc1F	-1%	/	-22%	?	/	15%	-11%	?
O=C(O)CCN1CC2([N+](=O)[O-])CC=C(OCCO)C([N+](=O)[O-])(C1)C2 (stereo not given)	-2%	/	-12%	20%[46.1 µM]	/	/	6%	19%
COCCNC(=O)c1ccc(N2CC3CC(C2)c2cccc(=O)n2C3)c(NC(=O)c2cc(OC)cc(OC)c2)c1 (stereo not given)	0%	/	-13%	/	/	0%	1%	/
COc1ccc(C2=Nn3c(nnc3-c3cccnc3)SC2)cc1	-3%	-2.4%	-5%	?	3%	-3%	10%	?
O=C(O)C(Cc1ccccc1)N1C(=O)c2cccc3cccc(c23)C1=O (stereo not given)	0%	/	-1%	12%[46.1 µM]	/	4%	3%	16%
Cc1ccc(S(=O)(=O)NCC(C)n2nc(C)cc2C)cc1 (stereo not given)	-4%	/	2%	-6%[46.1 µM]	/	0%	3%	6%[46.1 µM]
O=c1c(Cc2ccccc2)c(O)ccn1Cc1ccc2c(c1)OCO2	1%	/	-2%	1%	/	6%	1%	11%
C=CCOC(=O)C1=C(C)NC(=O)NC1c1ccc(N(C)C)cc1 (stereo not given)	1%	/	-18%	15%	/	4%	-11%	0%
C=CCn1c(NCCO)nc2sc3c(c2c1=O)CCC3	-4%	-1.6%	7%	/	-27%	-7%	7%	/
COc1cc(OC)c(NC(=O)NCCn2nnc3cc(S(=O)(=O)N(C)C)ccc32)cc1Cl	/	-0.5%	-15%	/	11%	/	/	9%[46.1 µM]
CCOC(=O)C1CCN(S(=O)(=O)c2ccc(CN3C(=O)c4cccnc4C3=O)cc2)CC1	10%	/	-13%	/	/	-2%	4%	/
C=CCn1c(SCC(=O)O)nnc1-c1ccc(C(C)(C)C)cc1	-5%	-1.6%	-24%	-25%	2%	13%	?	10%
CN(C)c1cccc(C(=O)OCC(=O)NC2CCCC2)c1	-3%	/	26%	/	/	0%	25%	/
Cc1ccc2[nH]cc(S(=O)(=O)c3ccc(C(C)C)cc3)c(=O)c2c1	0%	/	25%	-24%	/	-3%	1%	-2%
O=C(O)c1ccc(CSc2ccccn2)cc1	-1%	/	5%	6%[46.1 µM]	/	1%	0%	-5%
Cc1c(C(=O)NCCN(C)C)oc2c1-c1nn(Cc3cccc(Cl)c3)cc1CC2	/	-2.1%	-15%	/	5%	/	/	23%[46.1 µM]
O=C(CN1C(=O)CC(c2ccccc2)=Nc2ccccc21)NC1CCCCC1	-9%	0.4%	7%	-10%	1%	0%	14%	5%
Cc1cccc(NS(=O)(=O)c2ccc(C(=O)NCCCN3CCCC3=O)cc2)c1C	?	/	-23%	?	/	/	-1%	-14%
CCNc1nc(NCC)nc(SCCOc2ccc(C)cc2)n1	-138%	-8.4%	?	16µM*	7%	-32%	0%	?
Cc1ccccc1CN1CCC(C(=O)Nc2ccc(Oc3cccnc3)cc2)CC1	-3%	/	-29%	/	/	-10%	-9%	/
CCOC(=O)Cn1nnc(-c2ccc(OCC(C)C)cc2)n1	2%	-6.3%	27%	3%	0%	-13%	-28%	11%
COc1cc(CC(=O)NCCc2ccc(S(N)(=O)=O)cc2)cc(OC)c1OC	0%	1.8%	-9%	-4%	-1%	9%	-3%	0%
COc1ccc(NC(=O)C(=O)NCCc2csc3nc(-c4ccccc4C)nn23)cc1	/	-0.7%	-27%	/	-5%	/	/	/
O=C(NCCc1ccccc1)C1COc2ccccc2C1 (stereo not given)	/	-3.2%	36%[activator]	/	3%	/	/	5%[46.1 µM]
Continued.
SMILES	SARS PLpro yeast	Cruzain Triton	2A StopGo	MARV entry inh	Cruzain noTriton	NS1 function inh	RE007 growth inh	LASV entry inh
Cc1cccc(NC(=O)CSc2nc(C3CC3)nc3ccccc23)c1	-1%	/	5%	-28%[46.1 µM]	/	-24%	2%	-10%[46.1 µM]
O=[N+]([O-])c1ccc(P(=O)(Cc2ccccc2)c2ccccc2O)cc1 (stereo not given)	-1%	/	-7%	3%[46.1 µM]	/	1%	-1%	-12%[46.1 µM]
Cc1ccc(Nc2c(-c3ccccc3O)nc3cnccn23)cc1	-16%	/	-19%	-19%[46.1 µM]	/	/	38%	?
CC(=O)c1ccc(NC(=O)C2C3CCC(C3)C2C(=O)O)cc1 (stereo not given)	-7%	/	8%	?	/	-3%	-21%	-2%[46.1 µM]
